High-throughput results deposited in PubChem BioAssay by National Center for Advancing Translational Sciences (NCATS).
TRPML1 blocker: human mucolipin-1 channel inhibition | Q9GZU1 | TRPML1-inducible cells, Ca2+ dye fluorescence, FDSS; active compounds read low; inhibition of EC80 agonist-evoked calcium signal | activity change, negative = inhibition, % (test concentration not listed) | actives 0.02% (n = 390,000) | AID 624415; in the data active means activity change below about -50%; inconclusive means about -30% to -50%; inactive means above about -30%;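 further: stimulus is agonist 54-4 at its EC80 concentration; on the % scale 0 is the no-effect control and ±100 the full control effect; compound concentration not given in the record; the text of the record puts the active cut at -80%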
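Calcium fluorescence in TRPML1-DL cells induced overnight with Tet: a 110 s read after compound pin addition, then a 110 s antagonist read after challenge with 54-4 at 4 uM final (EC80).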
CtBP-E1A blk: CtBP/E1A binding inhibition. AlphaScreen GST-E1A/His-CtBP binding, 1536-well; active compounds read low; control for the full effect not named in the record. activity change, % (no concentration beside the values). actives 0.49% (n = 340,000). AID 651724; in the data active means activity change below about -65%; inconclusive means about -30% to -65%; inactive means above about -30%; further: on the % scale 0 is the no-effect control and ±100 the full control effect
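Homogeneous bead-based format: GST-tagged E1A captured on glutathione donor beads, His-tagged CtBP on nickel acceptor beads; compounds precede bead addition by 2 h at 37 °C.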
D2 PAM: positive allosteric modulators of human D2 dopamine receptor | P14416 | DiscoveRx D2 beta-arrestin cells, luminescence, 90 min; 100% = 57 uM dopamine signal | potentiation, % (concentration not given with the values) | actives 0.23% (n = 360,000) | AID 624464; active = potentiation of 50% or more; inconclusive = 30% to 50%; inactive = 30% or less;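 further: compound concentration not given in the record; tested on top of an EC20 dose of dopamine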
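D2 cells co-treated with compound plus 50 nM dopamine (EC20) for 90 min at 37 deg C to detect potentiation. Beta-arrestin recruitment was read as enzyme-fragment luminescence after 1 h at ambient temperature. Full response was set by 57 uM dopamine.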
TRPML1 agonist: activates the human TRPML1 channel | TRPML1-expressing cells, Ca2+ dye fluorescence, FDSS; host cell line not named in the record; reference of the full effect not given here | AID 624414 | activation, % (test concentration not listed) | actives 0.12% (n = 410,000); in the data active = activation above about 50%; inconclusive = about 30% to 50%; inactive = below about 30%; further: 0% is about no effect; the text of the record puts the active cut at 80%
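Tetracycline-induced TRPML1-DL cells are seeded and incubated overnight before loading with a no-wash Ca2+ dye and quencher. Agonist activity is taken from the 110 s fluorescence read following compound pin-transfer on an FDSS, before EC80 54-4 challenge.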
Six1-Eya2 inh: inhibitors of human Six1/Eya2 interaction; AlphaScreen GST-Six1/His-Eya2 binding, biochemical; active compounds read low; control for the full effect not named in the record; AID 651725; actives 0.56% (n = 360,000); activity change, % (test concentration not listed); in the data active = activity change below about -65%; inconclusive = about -30% to -65%; inactive = above about -30%; further: on the % scale 0 is the no-effect control and ±100 the full control effect
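AlphaScreen with GST-Six1 and His-Eya2 (5X mix: 250 nM and 500 nM), glutathione donor and nickel acceptor beads; buffer 50 mM Tris pH 8.0, 300 mM NaCl, 1 mM TCEP; 1 h at 37 C in the dark.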
TRPV1 potentiator: human TRPV1 potentiation | Q8NER1 | TRPV1-expressing cells, Fluo-8 calcium influx, capsaicin EC20 potentiation; host cell line not named in the record; control for the full effect not named in the record | potentiation, % at 8.33 µM | actives 0.02% (n = 320,000) | AID 540277; active means potentiation above 80%; inconclusive means 30% to 80%; inactive means below 30%; further: 0% is about no effect
Target sequence (Q8NER1 whole entry, looked up): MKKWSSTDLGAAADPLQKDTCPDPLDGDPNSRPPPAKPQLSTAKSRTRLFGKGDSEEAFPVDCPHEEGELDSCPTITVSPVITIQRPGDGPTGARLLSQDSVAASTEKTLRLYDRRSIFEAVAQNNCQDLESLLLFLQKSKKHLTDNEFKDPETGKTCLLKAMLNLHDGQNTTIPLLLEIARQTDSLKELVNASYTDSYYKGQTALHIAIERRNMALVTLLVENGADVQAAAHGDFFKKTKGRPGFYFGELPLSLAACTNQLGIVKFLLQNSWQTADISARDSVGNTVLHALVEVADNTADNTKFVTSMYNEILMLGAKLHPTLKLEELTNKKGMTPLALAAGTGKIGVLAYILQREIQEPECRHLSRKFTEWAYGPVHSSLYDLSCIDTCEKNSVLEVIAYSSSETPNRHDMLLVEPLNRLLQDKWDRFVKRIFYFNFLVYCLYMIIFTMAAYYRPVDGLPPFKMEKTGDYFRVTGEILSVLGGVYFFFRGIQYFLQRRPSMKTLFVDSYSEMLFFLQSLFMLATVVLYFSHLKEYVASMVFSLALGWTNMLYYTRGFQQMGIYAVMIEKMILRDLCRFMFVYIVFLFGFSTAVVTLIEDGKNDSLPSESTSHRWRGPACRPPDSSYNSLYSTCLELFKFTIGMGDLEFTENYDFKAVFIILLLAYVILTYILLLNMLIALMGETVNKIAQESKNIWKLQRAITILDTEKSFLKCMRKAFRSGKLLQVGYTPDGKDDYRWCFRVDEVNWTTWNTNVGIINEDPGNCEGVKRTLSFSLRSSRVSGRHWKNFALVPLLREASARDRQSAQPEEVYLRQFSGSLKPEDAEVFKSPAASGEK
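Cells expressing TRPV1 were dye-loaded with Fluo-8 and read kinetically: 10 s baseline, 3 min after compound (agonist portion), then 2 min after EC20 capsaicin (allosteric enhancer portion). Calcium-bound dye fluorescence at 480/520 nm.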
* = called active by the depositor; ? = inconclusive; . = not tested or not shown; & = joins results of further samples.

#1 Cc1ccc(S(=O)(=O)NN2C(=O)/C(=C/c3cccc(F)c3)SC2=S)cc1
#2 O=C(COc1ccc(CO)cc1)Nc1ccc(F)cc1
#3 CCOc1ccc(C(C)=O)cc1CSc1nnc(-c2cccs2)n1CC1CCCO1 (configuration not stated)
#4 COc1ccc(/C=C\C(=O)c2c(O)ccc3c(C)cc(=O)oc23)cc1OC
#5 O=S(=O)(NC(=NCc1ccccc1)c1ccccc1F)c1ccccc1
#6 Cc1ccc(C(C)C)c2oc(=O)cc(-c3ccc(-c4ccc(C(F)(F)F)cc4)cc3)c12
#7 CCCC(c1nnnn1Cc1ccco1)N1CCN(c2cc(Cl)ccc2C)CC1 (configuration not stated)
#8 CC(C)NC(=O)NC(=O)COC(=O)c1ccccc1Oc1ccccc1

assay / entry	1	2	3	4	5	6	7	8
TRPML1 blocker	-4	2	11	-6	-17	1	-1	29
CtBP-E1A blk	3	2	1	-18	5	-7	-1	8
D2 PAM	-2	21	-5	-9	-1	-2	-27	-5
TRPML1 agonist	0.5	0.0	4.1	0.1&-0.2	-0.7	3.4	1.4	1.4
Six1-Eya2 inh	2	2	0	-19	6	10	-14	2
TRPV1 potentiator	-9	-4	.	-14	-7	.	-6	-27

A second format for part of the listing above:
3: CCOc1ccc(C(C)=O)cc1CSc1nnc(-c2cccs2)n1CC1CCCO1 (configuration not stated)
  TRPML1 blocker: 11; CtBP-E1A blk: 1; D2 PAM: -5; TRPML1 agonist: 4.1; Six1-Eya2 inh: 0; TRPV1 potentiator: .
4: COc1ccc(/C=C\C(=O)c2c(O)ccc3c(C)cc(=O)oc23)cc1OC
  TRPML1 blocker: -6; CtBP-E1A blk: -18; D2 PAM: -9; TRPML1 agonist: 0.1&-0.2; Six1-Eya2 inh: -19; TRPV1 potentiator: -14
5: O=S(=O)(NC(=NCc1ccccc1)c1ccccc1F)c1ccccc1
  TRPML1 blocker: -17; CtBP-E1A blk: 5; D2 PAM: -1; TRPML1 agonist: -0.7; Six1-Eya2 inh: 6; TRPV1 potentiator: -7
6: Cc1ccc(C(C)C)c2oc(=O)cc(-c3ccc(-c4ccc(C(F)(F)F)cc4)cc3)c12
  TRPML1 blocker: 1; CtBP-E1A blk: -7; D2 PAM: -2; TRPML1 agonist: 3.4; Six1-Eya2 inh: 10; TRPV1 potentiator: .

(further entries)
#9 CN(Cc1nccs1)C(=O)c1ccc2nc(Cc3ccccc3F)oc2c1
#10 CCCNc1nc2c(c(=O)n(C)c(=O)n2C)n1CCc1ccccc1
#11 CCOC(=O)N1CCC(NS(=O)(=O)c2ccc3c(c2)oc(=O)n3C)CC1
#12 CCc1nnc(NC(=O)CCC(=O)Nc2ccc(Cl)cc2)s1
#13 Cc1ccccc1N=C1SCCN1C(=O)CN1C(=O)NC2(CCCC2)C1=O
#14 CC(C)CNS(=O)(=O)c1ccc(CCC(=O)N2CCN(Cc3ccc4c(c3)OCO4)CC2)cc1
#15 CC1CCCCN1C(=O)Cn1cc(C#N)c2ccccc21 (configuration not stated)
#16 CCC(=O)N1CCC1(C)C(=O)Nc1ncc(C)s1 (configuration not stated)

assay / entry	9	10	11	12	13	14	15	16
TRPML1 blocker	10	-16	0	15	-12	-10	5	4
CtBP-E1A blk	0	1	-1	-7	0	-1	7	5
D2 PAM	-14	-12	-1	-16	14	11	0	-15
TRPML1 agonist	0.5	3.9	2.8	0.3	2.1	-0.7	0.2	-0.3
Six1-Eya2 inh	-2	-1	-2	2	-1	1	-1	2
TRPV1 potentiator	?	28	-9	4	10	-1	25	.

#17 CCCCC(c1nnnn1CCOC)N1CCN(CC)CC1 (configuration not stated)
#18 CCOC(=O)c1oc2ccccc2c1NC(=O)CN1CCOCC1
#19 COc1cccc(C2C(C(=O)c3ccc(C)o3)=C(O)C(=O)N2c2cc(C)on2)c1 (configuration not stated)
#20 CCN(Cc1nc(-c2ccc(OC)c(OC)c2)no1)C(=O)c1ccoc1C
#21 O=C(c1ccc2ccccc2c1)N1CCN(c2ccc(O)cc2)CC1
#22 Cc1noc(C)c1COc1cccc(C(=O)Nc2cccnc2)c1
#23 CC(C)c1ccc(C(=O)N2CCCC(c3cc(C(=O)Nc4ccc5c(c4)OCO5)no3)C2)cc1 (configuration not stated)
#24 Cc1ccc(-c2nnc(SCC(=O)NCC3CCCO3)n2C)cc1 (configuration not stated)

assay / entry	17	18	19	20	21	22	23	24
TRPML1 blocker	2	25	21	-7	-2	2	.	32
CtBP-E1A blk	11	5	-2	-10	-16	-1	2	7
D2 PAM	-7	2	-7	2	8	-13	0	-3
TRPML1 agonist	-0.6	-0.5	-0.3	1.8	-0.4	-1.0	-0.2	0.8
Six1-Eya2 inh	7	-1	0	9	-14	-2	-1	11
TRPV1 potentiator	?	3	-3	4	-4	-23	.	-5

#25 CSc1nc2c(c(=O)n1-c1ccc(C)cc1)SCC2
#26 CCC(=O)Nc1ccc(NC(=O)c2cccc3c(Br)cccc23)cc1
#27 CCC(C(N)=NCCc1ccc(OC)c(OC)c1)c1ccccc1 (configuration not stated)
#28 O=C(CN1C(=O)/C(=C\c2ccccc2Cl)Sc2ccccc21)NCCCN1CCOCC1
#29 CN(C(=O)c1cccc(NC(=O)Cc2cccc(NC(=O)C3CCCN(C(=O)c4ccccc4)C3)c2)c1)C1CCC1 (configuration not stated)
#30 Cc1cc(N2CCCCCC2)n2nc(C)c(-c3ccccc3)c2n1
#31 O=C(CCN1C(=O)/C(=C/c2cccs2)SC1=S)Nc1cccc(C(=O)O)c1
#32 O=C(Nc1cccnc1)Nc1ccc2c(c1)OCO2

assay / entry	25	26	27	28	29	30	31	32
TRPML1 blocker	4	10	18	4	17	25	-9	-1
CtBP-E1A blk	-1	.	2	?	7	8	-27	3
D2 PAM	-12	0	-6	-28	6	4	-7	-10
TRPML1 agonist	0.1	0.7	1.7	3.1	1.9	1.8	1.0	-0.3
Six1-Eya2 inh	-2	13	1	-3	0	6	-25	-2
TRPV1 potentiator	-2	6	-11	14	.	-5	-2	-9

#33 COc1cc2c(cc1OC)C(c1ccc(C(F)(F)F)cc1)CC(=O)N2 (configuration not stated)
#34 O=C(N/N=C/C1=Cc2ccccc2OC1)c1ccncc1
#35 CC(C)(C)NS(=O)(=O)c1ccc(NC(=O)C2CC(=O)N(CCc3ccc(F)cc3)C2)cc1 (configuration not stated)
#36 COc1ccc(CCN2C(=O)CC(N3CCC(C(N)=O)CC3)C2=O)cc1OC (configuration not stated)
#37 O=C(O)c1ccc(CP(=O)(c2ccccc2)c2ccccc2)cc1
#38 O=C(Nc1cccc(-c2nc3ccccc3[nH]2)c1)c1ccco1
#39 COC(=O)c1cc(=O)n(Cc2ccc(F)cc2)c(=NCc2ccc(F)cc2)s1
#40 O=C(CSc1nnc2ccccn12)NC(=O)NC1CCCCC1

assay / entry	33	34	35	36	37	38	39	40
TRPML1 blocker	-2	-14	-20	-3	-7	-2	26	-20
CtBP-E1A blk	0	-1	0	3	.	-5	1	4
D2 PAM	2	-9	-6	-3	-1	-1	0	-4
TRPML1 agonist	-0.8	0.3	-0.2	-0.3	0.3	0.9	0.1	-0.9
Six1-Eya2 inh	-13	-1	4	6	7	-9	5	9
TRPV1 potentiator	-13	-21	24	1	-10	8	1	7

#41 O=C(CSc1nc2ccccc2[nH]1)Nc1nc(-c2ccc(Br)cc2)cs1
#42 CC(C(O)C12CC3CC(CC(C3)C1)C2)N1CCCCC1 (configuration not stated)
#43 O=C(CN1C(=O)S/C(=C\C=C\c2ccccc2)C1=O)Nc1ccc(O)cc1
#44 Cc1ccccc1S(=O)(=O)c1c(C)cc(-c2ccccc2)[nH]c1=O
#45 Cc1cn([C@H]2C[C@H](O)[C@@H](CNC(=O)[C@H](N)Cc3cccnc3)O2)c(=O)[nH]c1=O
#46 Cc1ccc(S(=O)(=O)Nc2ccc3c(c2)ncn3C(C)(C)C)cc1
#47 CCOC(=O)c1c(S(=O)(=O)NCc2cccs2)c(C)n(C)c1C
#48 CC(=O)c1ccc(-c2ccc(C(=O)N3CCN(c4ccc(F)cc4)CC3)o2)cc1

assay / entry	41	42	43	44	45	46	47	48
TRPML1 blocker	-4	-4	-15	-8	10	25	13	4
CtBP-E1A blk	-15	-14	0	1	6	7	-4	-3
D2 PAM	3	-4	20	-7	9	-5	-13	-3
TRPML1 agonist	-0.3	3.3	1.0	0.4	-0.1	0.1	-0.7	2.8
Six1-Eya2 inh	6	-1	1	12	4	-1	-4	-14
TRPV1 potentiator	7	10	-7	.	.	0	-1	-5

#49 Cc1nc(NC(=O)C(Cl)Cl)sc1C(=O)N(C)C
#50 Cc1cc(C)cc(N(CC(=O)NC2CCCCC2)C(=O)CCC(=O)Nc2cc(C)ccn2)c1
#51 COc1ccccc1OCC(=O)NNC(=O)Nc1ccccc1
#52 COc1ccccc1N1CCN(C2CCCN(C(=O)CCN3CCCCO3)C2)CC1 (configuration not stated)
#53 COC(=O)C1CCCN1S(=O)(=O)c1ccc2ccccc2c1 (configuration not stated)
#54 Cc1nnc(NC(=O)CCC(=O)N2CCC(C)CC2)s1
#55 CSc1ccccc1NC(=O)c1ccc(N2CC3CC(C2)c2cccc(=O)n2C3)c(NC(=O)c2cccnc2)c1 (configuration not stated)
#56 Cc1ccc(N=Cc2c(C)[nH]n(-c3nc4ccccc4[nH]3)c2=O)cc1
#57 CCN1CCCC1CNC(=O)CS(=O)(=O)Cc1nc(-c2ccccc2C)oc1C (configuration not stated)
#58 Cc1ccc2oc(C(=O)N3CCN(CC(=O)NC(C)C)CC3)c(C)c2c1
#59 CCOC(=O)Cc1cc(-c2ccc(F)cc2)nc2ccc3ccccc3c12

assay / entry	49	50	51	52	53	54	55	56	57	58	59
TRPML1 blocker	14	2	9	29	-13	2	20	-6	10	9	7
CtBP-E1A blk	2	5	6	3	23	18	.	-26	1	-4	0
D2 PAM	6	-5	-6	-26	4	-3	-4	-5	-10	-6	-20
TRPML1 agonist	-0.4	-0.6	1.5	-0.7	0.6	-0.2	-0.2	-0.1	0.1	-0.2	2.6
Six1-Eya2 inh	11	3	1	2	19	-3	5	?	-7	-8	4
TRPV1 potentiator	0	6	.	4	2	-3	-2	0	15	-22	11
